PINK1 expr mod – PINK1 expression modulation | PINK1 immunofluorescence, high-content cytometry, 24 h | Potency, µM (doses to about 76.6 µM), for the others: at the highest dose activation (PINK1 increase), usual class: activators | actives 0.2% (n = 410,000); active = well fitted activation curve with a large enough effect; inconclusive = small, poorly fitted or top-dose-only effect; inactive = flat fitted curve, though single readings scatter; cell line not stated here;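 further: potency means the concentration at half of the fitted maximal effect; % of control where 0% means no effect; nearly all actives have a fitted effect of over 65% in size; a mitochondrial uncoupler was the plate control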
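PINK1 protein, normally rapidly degraded, was detected by immunofluorescence after 24 hour compound treatment of a stable cell line. Titration data (5 concentrations) came from laser-scanning cytometry, with CCCP-treated wells as controls.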
ClpP mod – qHTS Assay for Activators of ClpP | actives 1.9% (n = 340,000) | AID 651965, 2013 | purified B. subtilis ClpP, FRET peptide cleavage, 20 min | Potency, µM (top dose mostly 57.5 µM), for inactives: at the highest dose activity change, negative = active | ATP-dependent Clp protease proteolytic subunit (Bacillus subtilis (strain 168)), P80244; active = well fitted falling curve with a large enough effect; inconclusive = small, poorly fitted or top-dose-only effect; inactive = no such curve, though single readings can be large or run the other way; further: potency means the concentration at half of the fitted maximal effect; the source files actives as falling curves though it sought activators and does not explain the sign; nearly all actives have a fitted effect of over 65% in size; many hits overshoot -100%
Target sequence (P80244 whole entry, looked up): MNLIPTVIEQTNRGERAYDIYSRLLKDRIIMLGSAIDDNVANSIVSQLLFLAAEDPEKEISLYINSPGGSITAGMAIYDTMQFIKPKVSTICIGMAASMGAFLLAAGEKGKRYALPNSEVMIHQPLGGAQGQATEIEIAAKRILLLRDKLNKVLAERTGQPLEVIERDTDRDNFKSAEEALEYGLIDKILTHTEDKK
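Buffer: 100 mM Tris/HCl pH8, 100 mM KCl, 0.05% low protease BSA, 2.5% glycerol, 0.01% Tween-20. ClpP 10 microg/mL final; 20 min RT; delta FRET normalized to ADEP and DMSO controls.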
gsp ag – agonists of gsp mutant (McCune-Albright syndrome); gsp mutant cells, cAMP HTRF, 30 min; control for the full effect not named in the record; Potency, µM (doses to about 76.9 µM), inactives show at the top dose activation (cAMP increase), hits mostly activators; AID 624287; actives 0.13% (n = 340,000); active = well fitted activation curve with a large enough effect; inconclusive = small, poorly fitted or top-dose-only effect, or another doubt; inactive = no such curve, though single readings can be large or run the other way; cell line not stated here;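 further: phosphodiesterase inhibitor Ro 20-1724 added with compounds to block cAMP breakdown; potency means the concentration at half of the fitted maximal effect; nearly all actives have a fitted effect of over 60% in size; about a fifth of the inactives were tested at one dose only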
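Cells in DMEM/10% FBS with G418 were pretreated with compounds in DMSO plus […] (300 uM stock) for 30 min at 37C. cAMP was measured by HTRF (cAMP-d2 plus anti-cAMP antibody-K) after 30 min at room temperature.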
Sfp inh – Sfp phosphopantetheinyl transferase inhibition; AID 1490; Potency, µM, without a hit: max response, negative = inhibition, usual class: inhibitors; Biochemical Sfp PPTase activity, qHTS; actives 3.5% (n = 310,000); active means well fitted inhibition curve with a large enough effect; inconclusive means small, poorly fitted or top-dose-only effect, or another doubt; inactive means no such curve, though single readings can be large or run the other way;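 further: the enzyme is Sfp with the accession as filed and its product quenches rhodamine fluorescence; potency means the concentration at half of the fitted maximal effect; 0% = enzyme reaction without inhibitor and -100% = no enzyme wells; top concentration of the series not given in the record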
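Reaction rates are the 30-min fluorescence difference (ex 525, em 598 nm) in wells containing 15 nM Sfp, 5 uM rhodamine-CoA and 12.5 uM BHQ-2-YbbR at pH 7.6 with 10 mM MgCl2.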
D2 agonist – human D2 receptor agonism in beta-arrestin assay; DiscoveRx PathHunter D2 beta-arrestin, luminescence, 90 min; 100% = 57 uM dopamine signal; activation, % (test concentration not listed); actives 0.084% (n = 360,000); in the data active = activation above about 40%; inconclusive = about 15% to 40%; inactive = below about 15%; further: compound concentration not given in the record; the text of the record calls up to 30% inactive
Target sequence (P14416 whole entry, looked up): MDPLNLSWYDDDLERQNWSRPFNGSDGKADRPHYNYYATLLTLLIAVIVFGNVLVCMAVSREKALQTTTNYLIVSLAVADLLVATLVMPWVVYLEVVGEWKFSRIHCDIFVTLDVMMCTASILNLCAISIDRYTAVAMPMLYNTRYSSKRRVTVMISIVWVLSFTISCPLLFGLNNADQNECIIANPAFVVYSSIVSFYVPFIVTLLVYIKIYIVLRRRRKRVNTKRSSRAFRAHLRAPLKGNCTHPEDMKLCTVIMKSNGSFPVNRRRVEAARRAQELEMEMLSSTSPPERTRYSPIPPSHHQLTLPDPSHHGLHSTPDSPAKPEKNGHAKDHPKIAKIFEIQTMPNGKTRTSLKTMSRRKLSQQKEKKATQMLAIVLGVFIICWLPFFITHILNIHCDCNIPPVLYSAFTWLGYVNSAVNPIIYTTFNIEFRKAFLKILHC
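DiscoveRx PathHunter D2 beta-arrestin cells (2,100/well) attached overnight, then compound-stimulated 90 min at 37 C in HBSS/10 mM HEPES/0.1% Tween-20 buffer; beta-galactosidase complementation read by luminescence after 1 h at ambient temperature. Dopamine 57 uM final (EC100) as control.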
gsp antag – gsp mutant antagonism; Potency, µM (titrated, usually from 76.9 µM), inactives show top-dose activity change, negative = inhibition, most hits filed as inhibitors; AID 624288; actives 0.4% (n = 340,000); gsp-mutant cells, cAMP HTRF, 30 min; control for the full effect not named in the record; active = falling curve of any shape with a large fitted effect; inconclusive = falling curve, mostly with a smaller effect; inactive = flat or rising curve; cell line not stated here;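 further: intracellular cAMP measured with PDE inhibitor Ro 20-1724 present during compound exposure; potency means the concentration at half of the fitted maximal effect; on the % scale 0 is the no-effect control and ±100 the full control effect; nearly all actives have a fitted effect of over 65% in size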
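G418-selected cells were plated in DMEM/10% FBS for 16-24 h at 37C, then treated with compounds plus the PDE inhibitor […] (300 uM solution added) for 30 min at 37C. Intracellular cAMP was measured by HTRF after 30 min lysis at room temperature.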
Menin-MLL FL inh – inhibitors of human menin-MLL interaction, wild-type MLL peptide | AID 1766 | FP activity change, % at 61.4 µM | 290,000 tested, under 10 active | Fluorescence polarization, fluorescein-MLL peptide displacement from menin; inconclusive = falling polarisation curve, or a change in total fluorescence; inactive = total fluorescence flat and polarisation flat or rising; no compound was filed as active; the % refers to the polarisation; negative = inhibition;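 further: % of control where 0% means no effect; inhibitors lower the polarisation; unlabelled MLL peptide was the positive control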
The depositor's hits bear a star; ? = inconclusive; / = no result given; & = joins results of further samples; [ ] = dose if it differs, or a comment. Rows were taken by chance, and some 5.1% of all compounds hit somewhere here.

Results follow in this order: PINK1 expr mod	ClpP mod	gsp ag	Sfp inh	D2 agonist	gsp antag	Menin-MLL FL inh
CCCN1CCN(CCCNC(=O)c2cc3c(s2)-c2c(C)cccc2OC3)CC1
 : -0.8%&-0.1%	4.0%&4.1%	?	-6%	-0.6	-13%	3.7
COc1ccc(NCC(=O)Nc2cccc(C(F)(F)F)c2)cc1S(=O)(=O)N1CCOCC1
 : 2.3%	1.1%	2%	/	-1.2	11%	/
C/C(=N\NC(N)=S)c1ccncc1
 : 1.8%	-1.4%	17%	79µM*	-3.1	5%	5.5
CCOC(=O)c1cnc2c([N+](=O)[O-])cnn2c1C
 : 1.5%	0.3%	9%	-27%	-5.7	-15%	3.5
Cc1ccccc1-c1noc(C(C)NC(=O)c2ccco2)n1 (centres undefined)
 : 2.2%&0.7%	0.2%	-17%	20%	-3.1	7%	4.8
CCc1nc2ccc(C(=O)N3CCN(C(=O)c4ccco4)CC3)cn2c1N(CC)Cc1cccc(Br)c1
 : 0.9%	-1.7%	/	/	2.4	/	/
CCOc1cccc(/C=N/NS(=O)(=O)c2ccc(C)c([N+](=O)[O-])c2)c1O
 : 2.7%	0.4%	10%[15.4 µM]	56µM*	-2.0	-48%	2.5
CCC1CCc2c(sc3nc(SCC(=O)NCc4ccco4)n(-c4ccccc4)c(=O)c23)C1 (centres undefined)
 : ?	?	0%	-20%	-0.9	-1%	1.9
O=C(NCc1ccncc1)C1CCC(=O)N(CCc2ccc(Cl)cc2)C1 (centres undefined)
 : -0.1%	-0.1%	-33%[inhibitor]	9%	2.2	-4%	-4.5
O=C(NCC(c1ccco1)N1CCCCC1)c1cccc(NS(=O)(=O)c2ccc(Br)cc2)c1 (centres undefined)
 : -0.2%	-0.3%	3%[15.4 µM]	/	-4.3	-15%	/
O=C(C1CCN(c2nnc(-n3cccc3)s2)CC1)N1CCN(Cc2ccc3c(c2)OCO3)CC1
 : -0.6%	-1.0%	?	-8%	3.7	-17%	0.8
Cc1oc(-c2cccc(Cl)c2)nc1CN1CCCC(C(=O)NC(C)c2ccc3c(c2)OCCO3)C1 (centres undefined)
 : 5.9%	-0.5%	-12%	6%	3.4	-32%	9.3
COc1ccc(CCNC(=O)CC2SC(=NCCc3ccccc3)NC2=O)cc1 (centres undefined)
 : -0.1%	1.3%	28%	-3%	-3.4	-1%	0.7
O=S1(=O)CCN2C(c3ccco3)=CSC2=N1
 : -2.0%	0.4%	-39%[inhibitor]	-17%	-3.4	1%	-2.1
COc1ccccc1CNC(=O)c1ccc(S(=O)(=O)N(C)c2ccccc2)cc1
 : -2.4%	-0.3%	-4%	/	0.2	-1%	/
COC(=O)Nc1c(-c2ccccc2)nc2ccc(C)cn12
 : -1.6%	-0.7%	-24%	8%	-4.1	-6%	3.9
C=Cc1c(C)c2cc3[nH]c(cc4nc(cc5nc(cc1[nH]2)C(C)=C5CCC(=O)O)C(CCC(=O)O)=C4C)c(C)c3C=C
 : 6.5%&-0.1%&1.0%	1.3%&0.1%&1.9%	/	0%&-18%	-6.4&2.1	?	-1.8&-6.9&-25
COc1cc(NC(=O)Nc2nc(C(N)C3CCCCC3)cs2)cc(OC)c1OC (centres undefined)
 : -1.1%	1.7%	/	/	109*	/	/
C[C@@H]1CN([C@H](C)CO)C(=O)CCCn2cc(nn2)CO[C@H]1CN(C)S(=O)(=O)c1ccc(-c2ccccc2)cc1
 : 1.4%	0.9%	-25%	/	-0.9	/	/
Cc1cccc(-n2ccnc2SCC(=O)Nc2nnc(C)s2)c1
 : 6.0%	-2.2%	-58%[inhibitor]	-17%	-4.6	4%	1.1
COc1ccccc1OCCNC(=O)Nc1cc(F)c(F)cc1Cl
 : 4.3%	0.6%	3%[15.4 µM]	5%	-5.0	?	2.2
O=C(c1cccc([N+](=O)[O-])c1)c1ccc2c(c1)OCCOCCOCCO2
 : 5.2%	/	?	7%	-1.0	0%	-4.3
O=c1c2oc3nc4c(cc3c2ncn1CCCc1ccccc1)CCCC4
 : 2.4%	-19%	0%[15.4 µM]	-11%	4.1	-23%	2.7
CCOC(=O)c1[nH]ncc1CN1CCc2ccc(NC(=O)C3CCCO3)cc2C1 (centres undefined)
 : -0.2%	0.8%	2%[15.4 µM]	-5%	-4.4	4%	-3.6
COc1ccc2c(c1)c(C(C)=O)c(C)n2-c1ccccc1OC
 : 1.9%	/	-9%[15.4 µM]	/	1.5	2%	/
N#Cc1ccccc1S(=O)(=O)N1CCN(C(=O)Cc2coc3cc(O)ccc23)CC1
 : 1.8%	-8.8%	?	/	-0.4	5%	/
CN1CCC2(CC1)N=C(c1ccc(F)cc1)C(=S)N2C(=O)c1ccccc1
 : ?	1.0%	0%	50µM*	0.5	1%	3.5
O=C(C1CC1)N1CCc2cc(Br)cc(S(=O)(=O)NC3CCCCC3)c21
 : -1.3%	-0.4%	11%	-11%	-3.0	-16%	2.5
CN(CC(=O)O)Cc1nc2ccccc2[nH]1
 : 2.6%[38.3 µM]	-0.8%	28%	89µM*	1.8	14%	-4.3
CCCCn1c(CCC(=O)O)ccc1-c1cccs1
 : -0.8%	4.0%	-26%	?	0.2	-1%	6.7

Gathered by group: those above containing an aryl methoxy group (6)
Results follow in this order: PINK1 expr mod	ClpP mod	gsp ag	Sfp inh	D2 agonist	gsp antag	Menin-MLL FL inh
COc1ccc(NCC(=O)Nc2cccc(C(F)(F)F)c2)cc1S(=O)(=O)N1CCOCC1
 : 2.3%	1.1%	2%	/	-1.2	11%	/
COc1ccc(CCNC(=O)CC2SC(=NCCc3ccccc3)NC2=O)cc1 (centres undefined)
 : -0.1%	1.3%	28%	-3%	-3.4	-1%	0.7
COc1ccccc1CNC(=O)c1ccc(S(=O)(=O)N(C)c2ccccc2)cc1
 : -2.4%	-0.3%	-4%	/	0.2	-1%	/
COc1cc(NC(=O)Nc2nc(C(N)C3CCCCC3)cs2)cc(OC)c1OC (centres undefined)
 : -1.1%	1.7%	/	/	109*	/	/
COc1ccccc1OCCNC(=O)Nc1cc(F)c(F)cc1Cl
 : 4.3%	0.6%	3%[15.4 µM]	5%	-5.0	?	2.2
COc1ccc2c(c1)c(C(C)=O)c(C)n2-c1ccccc1OC
 : 1.9%	/	-9%[15.4 µM]	/	1.5	2%	/

More records follow.
Results follow in this order: PINK1 expr mod	ClpP mod	gsp ag	Sfp inh	D2 agonist	gsp antag	Menin-MLL FL inh
Nc1c(Cl)ncnc1N/N=C/c1cccnc1
 : -0.4%	/	14%[15.4 µM]	50µM*	-5.6	-10%	0.3
CC1(c2ccccc2)NC(=O)N(CC(=O)Nc2ccc([N+](=O)[O-])cc2)C1=O (centres undefined)
 : 0.3%	-0.4%	-8%	0%	-1.8	-12%	-4.0
CCN(Cc1cnn(C)c1)C(=O)c1cc(COc2ccc3c(c2)CCCC3)on1
 : -0.2%	1.0%	?	5%	-0.1	?	/
CCCCOc1ccc(C(=O)Nc2ccc(OCC(=O)N3CCOCC3)cc2)cc1
 : 12%	4.1%	-31%[inhibitor]	10%	-2.2	10%	4.1
N=c1n(Cc2ccc(Cl)cc2)c2ccccc2n1CC(O)COc1ccccc1 (centres undefined)
 : -2.7%	/	5%	-4%	-1.3	9%	-2.2
COc1ccc(NC(=O)CSc2ccc(C)cc2)cc1
 : -1.1%	0.7%	-26%	9%	-1.9	5%	1.8
CC(=O)Nc1ccc(C(=O)N2CCCCC2c2cc(C(=O)NCc3cccnc3)no2)cc1 (centres undefined)
 : 0.0%	0.7%	/	/	-2.3	/	/
CC(=O)c1c(N2CCN(CCO)CC2)nc(=S)n(-c2ccccc2)c1C
 : -1.8%	/	-3%[15.4 µM]	29%	-2.5	-9%	-11
CCc1ccccc1NC(=O)c1cc(C2CC2)on1
 : -0.2%	0.4%	19%	18%	-2.7	0%	3.9
N#CC1=C(N)Oc2cc(O)ccc2C1c1cccnc1 (centres undefined)
 : -0.7%	/	-5%	15%	13	0%	?
CCCCC(=O)Nc1cc(C(=O)NCCc2ccccc2)ccc1Cl
 : 4.6%[38.3 µM]	-0.5%	4%	22%	-1.6	-5%	-1.3
Cc1cc(C(=O)NCc2ccccc2Cl)c2ccccc2n1
 : 3.2%	/	0%[15.4 µM]	6%	0.0	-4%	1.0
Cc1nc(CS(=O)(=O)c2ccc(Cl)cc2)cc(Sc2ccc(Cl)cc2)n1
 : -1.5%	-8.5%	?	15%	0.7	-8%	-0.4
CCOC(=O)NN=C1CN(S(=O)(=O)c2ccc(C)cc2)C1
 : 1.4%	/	-5%[15.4 µM]	-8%	-1.2	18%	0.3
C#CCOCCOCCOCCNc1nc(N2CCN(C(=O)[C@H](CCC(=O)O)n3cc(C(N)CO)nn3)CC2)nc(N2CCN(C(=O)[C@H](Cc3ccc(O)cc3)n3cc(C(N)[C@H](C)CC)nn3)CC2)n1 (some centres undefined)
 : -0.6%	-0.3%	12%	-1%	-2.0	9%	0.5
Cc1ccc(-n2cc(CN(C)Cc3ncc[nH]3)c(-c3cccc(C)c3)n2)cc1
 : ?	/	5%[15.4 µM]	56µM*	-5.8	-11%	3.1
CN(Cc1ccc(F)cc1)C(=O)c1ccc(NS(=O)(=O)c2ccccc2)cc1
 : -2.1%	0.0%	-2%[15.4 µM]	/	-5.6	-13%	/
CC(=O)c1cccc(NC(=O)N2CCC(NC(=O)c3ccco3)CC2)c1
 : 4.4%	/	-16%	19%	-5.7	7%	-1.0
O=C(N/N=C/c1ccc([N+](=O)[O-])o1)c1ccccc1NS(=O)(=O)c1cccs1
 : 7.3%	-2.2%	-3%	7%	7.9	-11%	3.6

Screening results deposited in PubChem BioAssay by National Center for Advancing Translational Sciences (NCATS).
